# TAR Tat displ = HIV-1 TAR-Tat binding disruption; HIV-1 TAR RNA, Tat peptide displacement FRET; hits give high values; AID 1259389; 100,000 tested, 0.6% active; z-score (no concentration beside the values);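 also: score is relative to mean and SD of negative controls; some compounds called inactive have numbers as strong as hits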
# CDC25B CDK2 inh = human CDC25B-CDK2/CyclinA binding inhibition; P30305+P24941; HTRF CDC25B-CDK2/CyclinA binding, anti-His/anti-Flag; hits give high values; z-score (no concentration beside the values); 94,000 tested, 0.72% active; AID 1259370;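 also: score is relative to mean and SD of negative controls; strong numbers were not always called active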
# Numbers without * were called inactive; nt = not tested or not shown.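 The calls were made as follows: active = z-score from 3 up in half or more of its runs; inactive = the rest.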
# Value order: TAR Tat displ | CDC25B CDK2 inh
- COc1ccc(OC)c(N2C(=O)c3cccnc3C2Nc2cccc(F)c2)c1 (stereo not drawn)
    1.8 | nt
- Oc1ccc2ccccc2c1CNc1nc(-c2ccccc2)cs1
    -1.1 | -1
- CCCC1CC(C)(c2csc(Cc3ccc(OCC)cc3)n2)OC1=O (stereo not drawn)
    0.67 | 0.34
- COc1ccc2nc(NC(=O)COc3ccc(Cl)cc3)sc2c1
    -0.93 | nt
- Cc1cccc(C(=O)N2c3ncnn3C3(CCCCC3)[C@@H]3CCCC[C@@H]32)c1
    9.2* | 0.37
- CCSC1=C(C#N)C(c2ccc(C(C)C)cc2)CC(=O)N1 (stereo not drawn)
    nt | -1.2
- CC1(C)C=C(C(=O)N2CCOCC2)C(C)(C)N1
    nt | -1.1
- Cc1c(O)cc(O)c2c(=O)c(-c3ccc(O)cc3)coc12
    2.9 | nt
- Cc1ccc(CN2CCc3nc(N4CCN(C)CC4)ncc3C2)cc1
    0.11 | nt
- COc1cc(OC)c(NC(=O)c2ccc3cccc(O)c3n2)cc1Cl
    0.45 | -0.18
- Nc1cccc(C(=O)CC2(O)C(=O)N(Cc3ccccc3)c3ccccc32)c1 (stereo not drawn)
    nt | -0.49
- C[n+]1ccn(CC(=O)c2ccccc2)c1
    0.73 | -0.6
- Cc1ccc(C2c3c(n(C)c(=O)n(C)c3=O)N=C3c4ccccc4C(=O)C32)cc1Cl (stereo not drawn)
    2.1 | -0.62
- O=C(O)CNS(=O)(=O)c1ccc2c(c1)Cc1cc(S(=O)(=O)NCC(=O)O)ccc1-2
    nt | -0.92
- O=C(O)c1ccccc1Nc1ccc([N+](=O)[O-])cc1C(=O)O
    nt | -1.6

# (next part)
# Value order: TAR Tat displ | CDC25B CDK2 inh
- COc1ccccc1CN[C@H]1CS(=O)(=O)C[C@@H]1S(=O)(=O)c1cccs1
    0.19 | -0.98
- C[C@@]12C(=O)OC(=O)[C@]1(C)C1CCC2O1
    0.6 | nt
- Cc1csc2nc(CSc3nnc(NC(=O)CCc4ccccc4)s3)cc(=O)n12
    0.68 | nt
- Cc1nc2nc(CNc3cccc(Cl)c3)[nH]n2c(=O)c1C
    -0.74 | -1.2
- CC(C)Nc1cc(N(C)CCc2ccccn2)c2noc3c2c1C(=O)c1ccccc1-3
    -1.7 | 1.1
- COc1ccc(NCc2ccccn2)cc1
    nt | -1.4
- CCSc1nc(=O)c2c(n1C)NC(=O)CC2c1cc(C)ccc1C (stereo not drawn)
    1.3 | 1.3
- CN1C(C(=O)N2CCN(c3ccc(F)cc3)CC2)=CC(c2ccc(F)cc2)=NS1(=O)=O
    1.3 | -2.1
- CCC(C)NC(=O)CN1C(=O)CCn2nc(C)cc21 (stereo not drawn)
    0.72 | nt
- COC(=O)c1nc2n(n1)C(c1ccc(Br)cc1)C1=C(CC(C)(C)CC1=O)N2 (stereo not drawn)
    nt | -0.02
- O=C(NCC1CCCCC1)NC1CCCN(c2cnccn2)C1 (stereo not drawn)
    1.9 | -1.9
- COc1ccc(-n2nnnc2C2CCN(S(=O)(=O)c3ccc(F)cc3Cl)CC2)cc1
    -1.1 | -1.7
- CCOc1ccc(-n2ccc(=O)c(C(=O)Nc3sc4c(c3C(=O)OC)CCCC4)n2)cc1
    -0.39 | 0.58
- CC(C)(C)c1ccc(-c2noc(CSc3n[nH]c(N)n3)n2)cc1
    nt | -1.3
- Cc1ccc(-c2nc(CS(=O)(=O)CC(=O)NC(C)c3ccc4c(c3)OCCO4)c(C)o2)cc1 (stereo not drawn)
    nt | -0.72

# A different layout for some results above.
smiles: C[n+]1ccn(CC(=O)c2ccccc2)c1
  TAR Tat displ = 0.73
  CDC25B CDK2 inh = -0.6

smiles: Cc1ccc(C2c3c(n(C)c(=O)n(C)c3=O)N=C3c4ccccc4C(=O)C32)cc1Cl (stereo not drawn)
  TAR Tat displ = 2.1
  CDC25B CDK2 inh = -0.62

smiles: O=C(O)CNS(=O)(=O)c1ccc2c(c1)Cc1cc(S(=O)(=O)NCC(=O)O)ccc1-2
  TAR Tat displ = nt
  CDC25B CDK2 inh = -0.92

# (listing goes on)
# Value order: TAR Tat displ | CDC25B CDK2 inh
- CCOC(=O)c1c(C)[nH]c(C)c1S(=O)(=O)N1CCC(C)CC1
    1.4 | nt
- CCN1CCN(c2ncc(C(=O)O)c(C)n2)CC1
    -0.33 | -0.22
- Cc1ccc(/C(O)=C2/C(=O)C(=O)N(c3cccnc3)C2c2cccc(O)c2)cc1 (stereo not drawn)
    0.64 | 2.9
- Cc1ccccc1NS(=O)(=O)c1ccc(-c2n[nH]c(C)c2C)s1
    0.17 | nt
- CN(C)c1ccc(CC2C(=O)Nc3ccccc32)cc1 (stereo not drawn)
    -0.43 | -1.6
- CCN(C(=O)CC(C)S(=O)(=O)c1ccc2c(c1)CCN2C(=O)C1CC1)c1ccccc1 (stereo not drawn)
    0.22 | nt
- C/C(=N\NC(N)=S)C(=O)O
    nt | 2.4
- Cc1ccc(C(=O)/C=C/Nc2ccc(Cl)cc2)cc1
    nt | -0.74
- Cc1ncc([N+](=O)[O-])n1S(=O)(=O)c1ccc2c(c1)OCCO2
    1.2 | -0.2
- O=C(CN1C(=O)c2cccnc2Sc2ccccc21)NCCc1c[nH]c2ccc(Cl)cc12
    2.1 | -0.94
- Cn1ccc2cc(S(=O)(=O)N3CCCC(C(=O)NCCN4CCOCC4)C3)ccc21 (stereo not drawn)
    0.95 | nt
- CC1=CC2C(C(C)C)CCC(C)(O)C2CC1 (stereo not drawn)
    3.2 | nt
- O=C(NCC1CCCO1)C1CCN(c2nnc(-n3cccc3)s2)CC1 (stereo not drawn)
    0.18 | -0.76
- CC1(C)CC(=O)c2cnc(NCc3ccc(F)cc3)nc2C1
    0.16 | -0.8
- N=C1C(c2nc3ccccc3[nH]2)=C(O)CN1c1ccccc1Cl
    1 | -3

# The listing continues.
molecule | TAR Tat displ | CDC25B CDK2 inh
COc1ccccc1NS(=O)(=O)c1ccccc1[N+](=O)[O-] | nt | -1.4
O=C1CSC(c2cn(-c3ccccc3)nc2-c2ccccc2)N1Cc1cccnc1 (stereo not drawn) | -0.02 | -3.3
CSc1ncc(C(=O)NCc2ccccn2)c(-c2ccccc2)n1 | 0.75 | nt
CCCCCOC(=O)C1=C(C)NC2=C(C(=O)CCC2)C1c1ccc(OC)c(Br)c1 (stereo not drawn) | 0.98 | -1.1
COc1ccc(C2CC(C(F)(F)F)n3ncc(C(N)=O)c3N2)cc1 (stereo not drawn) | 0.9 | -1.4
CCn1nc(C)c(CNC(=O)NCc2ccc(C)cc2)c1C | -0.23 | nt
O=C(Cn1nc2c3scc(-c4ccc(F)cc4)c3ncn2c1=O)Nc1ccc(F)cc1F | 1.8 | nt
CCOC(=O)Oc1ccc2c(=O)c(Oc3ccccc3Br)coc2c1 | 0.13 | -0.93
O=C(O)c1cccc(-n2cnc3cccnc32)c1 | 3.1 | -0.93
O=C(c1ccc(NC(=O)N2CCSc3ncccc32)cc1)N1CCOCC1 | -1 | nt
CCN(CC)CCn1c(C)c(C)c2c1ncn1nc(-c3ccccc3)nc21 | 1.7 | -1.9
Nc1c(C(=O)Nc2ccc(Cl)cc2)oc2ccccc12 | 1.1 | 1.5
CSc1cccc(NC(=O)c2cc(S(=O)(=O)N3CCOCC3)cn2C)c1 | -0.65 | nt
Cc1cn2c(=O)c(S(=O)(=O)N3CCN(Cc4ccc5c(c4)OCO5)CC3)c(C)nc2s1 | -0.77 | nt
Cc1c(S(=O)(=O)c2ccccc2)nnn1-c1ccc(Cl)cc1 | -0.29 | -2.9
CCCC1c2cccn2CCN1C(=O)Nc1cccc(F)c1 (stereo not drawn) | -2.7 | nt
CSc1ncc2c(n1)-c1ccccc1N(Cc1ccccc1C)S2(=O)=O | -0.32 | nt
COCCNC(=O)CCc1c(C)nc2c(c1C)c(=O)n(C)c(=O)n2C | 1.1 | -0.36
O=C(Nc1ccc(Br)cc1F)C1CCCN(c2cnc3ccccc3n2)C1 (stereo not drawn) | 0.68 | -3
O=C(Cc1ccc([N+](=O)[O-])cc1)Nc1c(F)cccc1F | nt | 0.96
Cc1nn(CC(=O)N2CC(C)CC(C)C2)c(=O)c2cc3sccc3n12 (stereo not drawn) | 6.7 | -1.3
Cc1cc(F)ccc1Nc1nc2ccccc2n2nnnc12 | -2.7 | -1.6
CN1CCc2c(n(CC(O)Cn3nnc4ccccc43)c3ccccc23)C1=O (stereo not drawn) | nt | -2.7
CN(C)c1ccc(-n2cc3c(c2-c2ccc(Br)cc2)c(=O)n(C)c(=O)n3C)cc1 | -1.1 | 3.4
COc1ccc(-n2c(Cc3cc(=O)[nH]c(=O)[nH]3)nnc2SCC(=O)c2ccc(Cl)cc2)cc1 | 0.96 | nt
Cn1c(=O)c2c(SCC(=O)Nc3ccc4c(c3)OCCO4)nc(C3CC3)nc2n(C)c1=O | 0.51 | nt
c1csc(-c2csc(-c3nc(-c4cccs4)cs3)n2)c1 | -0.32 | -2.6
Cc1ccc(NC(=S)N2CCCN(c3ncccc3[N+](=O)[O-])CC2)cc1Cl | nt | 1.1
Clc1cc(Cl)cc(OCc2ncc(-c3ccc4c(c3)OCCCO4)s2)c1 | nt | -0.74
Cc1cc(-c2ccc(C)c(S(=O)(=O)N3CCCC3)c2)on1 | 0.66 | nt

# Three structures out of the list, sorted by molecular weight, smallest number first:
molecule | TAR Tat displ | CDC25B CDK2 inh
Cc1c(S(=O)(=O)c2ccccc2)nnn1-c1ccc(Cl)cc1 | -0.29 | -2.9
Clc1cc(Cl)cc(OCc2ncc(-c3ccc4c(c3)OCCCO4)s2)c1 | nt | -0.74
O=C(Cn1nc2c3scc(-c4ccc(F)cc4)c3ncn2c1=O)Nc1ccc(F)cc1F | 1.8 | nt

# Remaining list, next part:
molecule | TAR Tat displ | CDC25B CDK2 inh
COc1cc(NC(=O)C2=C(C)OCCS2)c(Cl)cc1C(=O)NC1CC1 | 2.2 | nt
Cc1oc2ccc(NS(=O)(=O)c3ccc(Cl)c([N+](=O)[O-])c3)cc2c1C(=O)OC(C)C | nt | -1.9
CC1CCC(NS(=O)(=O)c2ccc3c(c2)CCCN3C(=O)C2CCC2)CC1 (stereo not drawn) | 0.35 | nt
CCc1ccccc1-n1nnc(-c2nc(-c3cccs3)no2)c1N | -0.9 | nt
COC(=O)CSc1ncnc2c1sc1nc3c(cc12)COC(C)(C)C3 | -0.39 | nt
O=C(CC1Sc2ccccc2NC1=O)NNS(=O)(=O)c1ccc(Cl)cc1 (stereo not drawn) | nt | -1.4
CCOc1ccc(-c2csc(-c3ccccn3)n2)cc1 | 0.98 | -1.7
c1ccc2[nH]c(SCc3cn4ccsc4n3)nc2c1 | 1.4 | -0.72
CC1(C)CC2CC(C)(CN2C(=O)C23CCC(C)(C(=O)O2)C3(C)C)C1 (stereo not drawn) | nt | -2.4
CCCS(=O)(=O)n1nc(-c2ccc(Cl)cc2)cc1N | nt | -0.5
Clc1ccc(-c2csc(Nc3ccccc3)n2)cc1 | nt | 1.3
O=C(CSc1nc2c(cnn2-c2ccc(F)cc2)c(=O)[nH]1)N1CCCCCC1 | nt | -1.4
O=C(Nc1ccc2c(c1)OCO2)c1cc2c(s1)-c1ccccc1OC2 | 1.2 | 2.9
NC(=O)COc1ccccc1 | nt | -1.1
Cc1c2cnn(-c3ccccc3)c(=O)c2c(C)n1CCCC(=O)NCC1CCCO1 (stereo not drawn) | 1.8 | -0.37
c1ccc2c(c1)CCN(CCCNc1nc3ccccc3n3nnnc13)C2 | -1.5 | -1.9
CC1CN(c2ccc(C(=O)NCCN3CCOCC3)s2)c2ccccc2S1 (stereo not drawn) | -0.01 | nt
CC(=O)N1c2ccc(S(=O)(=O)N3CCOCC3)cc2CC1C(=O)NCCN1CCCC1 (stereo not drawn) | -0.08 | nt
CCOc1ccc(C2C(C#N)=C(N)OC3=C2C(=O)CCC3)cc1 (stereo not drawn) | nt | -1
O=c1c(C=NCc2ccncc2)c(C(F)(F)F)[nH]n1-c1nc2ccccc2s1 | nt | 0.82
COc1ccc(-n2nc(C(=O)N(C)c3ccccc3F)c3c4ccccc4n(C)c3c2=O)cc1 | nt | -1.4
CC1CCCC(NC(=O)C2CCCN(c3ncnc4c3nc3n4CCCCC3)C2)C1C (stereo not drawn) | 0.79 | -0.25
C=CCOC(=O)C1=C(C)NC2=C(C(=O)CCC2)C1c1ccc(OCc2ccccc2)c(OC)c1 (stereo not drawn) | 1 | -2.2
Cc1nc(N2CCOCC2)c2c(C(=O)Nc3ccc(F)cc3Cl)c(C)oc2n1 | 1 | nt
CCOC(NC(=O)Nc1ccc(Br)cc1)(C(F)(F)F)C(F)(F)F | nt | -2.5
CCCC(=O)Nc1nc2cc(NS(=O)(=O)c3cnc[nH]3)ccc2s1 | 2.3 | nt
CCOC(=O)N1CCN(c2c(N3CCC(N4CCCCC4)CC3)c(=O)c2=O)CC1 | -0.83 | -1.8
CCN(CC)CCNC(=O)Cn1cnc2sc(C)c(S(=O)(=O)N3CCOCC3)c2c1=O | 0.4 | 0.22
CNNCc1ccc(C(=O)NC(C)C)cc1 | -0.44 | nt
CC1CCN(C(=O)Cn2cc(SCC(=O)N3CCOCC3)c3ccccc32)CC1 | 0.24 | nt

# (list continues)
molecule | TAR Tat displ | CDC25B CDK2 inh
CCCCCOC(=O)CSc1nc2ccccc2s1 | 0.83 | -1.3
Cc1c(CNCC2CCCO2)c(C(=O)O)c(C)n1Cc1ccc(F)cc1Cl (stereo not drawn) | 0.37 | 0.74
Cc1ccc(C)n1CCc1c[nH]c2ccccc12 | -4.1 | nt
COC(=O)c1ccc(C2CC(=O)Nc3c2c(C)nn3-c2nncc(-c3ccc(F)cc3)n2)cc1 (stereo not drawn) | 1.2 | 0.08
CCc1cccc(C)c1Nc1c(-c2ccsc2)nc2cnccn12 | -0.57 | -0.89
COc1ccc(-c2cc(Nc3cc(Cl)ccc3O)nc(C)n2)cc1 | -0.47 | 0.37
COc1ccc(S(=O)(=O)N2CCC(C(N)=O)(N3CCCCC3)CC2)cc1OC | 2 | -2.1
N#CCS(=O)(=O)Cc1ccc(F)cc1 | nt | 0.37
Cc1cc(NC(=O)c2ccc3c(c2)OCCO3)no1 | 0.44 | 1.8
Cn1cc2c(c1-c1ccccc1Cl)c(=O)n(C)c(=O)n2C | 1.9 | -3.2

# Screening data deposited in PubChem BioAssay by Center for Chemical Genomics, University of Michigan.
